Screening results (PubChem)
NS1 inh = influenza NS1 inhibition. Potency, µM (series often up to 46.1 µM), without a hit: top-dose activity, positive = more growth. hit rate 0.4% among 270,000. S. cerevisiae slowed by influenza A NS1, growth recovery by OD600; further: actives are rising curves; nearly all actives have a fitted effect of over 50% in size
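Recovery from NS1-induced slow growth read by OD600 in budding yeast switched to galactose assay medium (pH 6.0, -URA) at 1:100 dilution. Compound 23 nl per well; the matching strain lacking NS1 serves as control.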
Marburg entry inh = blocks Marburg virus binding to or entry into cells; Marburg virus pseudotyped entry inhibition, cell reporter; control for the full effect not named in the record; about a third of the inactives were read at about 46 µM; Potency, µM (doses to about 37.8 µM), for inactives: top-dose activity change, negative = inhibition, actives largely listed as inhibitors; hit rate 1.8% among 300,000; AID 540276; active = well fitted inhibition curve with a large enough effect; inconclusive = small, poorly fitted or top-dose-only effect, or effect the other way; inactive = flat fitted curve, though single readings scatter; tested in HEK293 cells; about a fifth of its hits are not listed in these tables; further: on the % scale 0 is the no-effect control and ±100 the full control effect; luciferase read-out
RE007 growth inh = less growth of the S. pombe RE007 Vpr strain; S. pombe RE007 Vpr strain, BacTiter-Glo ATP luminescence, 24 h; control for the full effect not named in the record; Potency, µM (series often up to 92.2 µM), for the others: at the highest dose activity change, negative = less growth; hit rate 0.21% among 360,000; active = well fitted falling curve with a large enough effect; inconclusive = small, poorly fitted or top-dose-only effect; inactive = no such curve, though single readings can be large or run the other way;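 further: on the % scale 0 is the no-effect control and ±100 the full control effect; nearly all actives have a fitted effect of over 50% in size; the assay follows cell death caused by Vpr and the record does not say whether a fall means rescue or toxicity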
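Fission yeast RE007 carrying one integrated HIV-1 vpr copy, seeded at OD 0.01 in PMG+AL medium with 23 nL pinned compound. Grown 24 h at 30 degrees; viability read by BacTiter-Glo luminescence after 5 min.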
LASV entry inh = inhibitors of Lassa virus binding or cell entry; AID 540256; Potency, µM (top dose mostly 37.9 µM), for inactives: at the highest dose activity change, negative = inhibition, actives largely listed as inhibitors; hit rate 1.2% among 300,000; Lassa virus pseudotype entry inhibition, cell reporter; control for the full effect not named in the record; active means well fitted inhibition curve with a large enough effect; inconclusive means small, poorly fitted or top-dose-only effect, or effect the other way; inactive means flat fitted curve, though single readings scatter; tested in HEK293 cells; further: on the % scale 0 is the no-effect control and ±100 the full control effect; nearly all actives have a fitted effect of over 50% in size; luciferase read-out
Cruzain inh noDet = blocks cruzain activity in detergent-free assay; hit rate 2.3% among 200,000; AID 1476; P25779; Potency, µM, without a hit: max response, negative = inhibition, actives largely listed as inhibitors; purified cruzain, Z-FR-AMC fluorescence, no detergent; active means well fitted curve in the direction sought with a large enough effect; inconclusive means small, poorly fitted or top-dose-only effect, or another doubt; inactive means no such curve, though single readings can be large; an effect the other way counts as inactive or inconclusive;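 further: plate controls were enzyme without inhibitor for no effect and buffer without enzyme for full effect; nearly all actives have a fitted effect of over 40% in size; top concentration of the series not given in the record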
Target sequence (P25779 123-467 limits assumed): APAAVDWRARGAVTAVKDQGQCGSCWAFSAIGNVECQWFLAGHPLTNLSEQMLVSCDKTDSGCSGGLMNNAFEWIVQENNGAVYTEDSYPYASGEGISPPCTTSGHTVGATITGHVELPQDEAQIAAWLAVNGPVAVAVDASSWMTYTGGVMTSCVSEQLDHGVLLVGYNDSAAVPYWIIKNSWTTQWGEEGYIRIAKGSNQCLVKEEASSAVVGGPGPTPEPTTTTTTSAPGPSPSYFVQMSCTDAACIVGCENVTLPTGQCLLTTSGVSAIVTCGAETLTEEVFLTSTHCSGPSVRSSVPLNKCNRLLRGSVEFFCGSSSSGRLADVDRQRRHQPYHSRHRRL
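Detergent-free condition (0.00005% Triton X-100) in acetate buffer pH 5.5 with DTT. 1.5 nM enzyme and compound were pre-mixed 15 min, then 2 uM Z-FR-AMC substrate added; reaction progress from fluorescence change between first and third reads (60 s).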
Cruzain Triton = inhibitors of Trypanosoma cruzi cruzain with detergent; P25779; purified cruzain, Z-FR-AMC fluorescence, 0.01% Triton; hit rate 0.43% among 200,000; Potency, µM, for inactives: max response, negative = inhibition, actives largely listed as inhibitors; active means well fitted curve in the direction sought with a large enough effect; inconclusive means small, poorly fitted or top-dose-only effect, or another doubt; inactive means no such curve, though single readings can be large; an effect the other way counts as inactive or inconclusive;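 further: plate controls were neutral wells for no effect and buffer without enzyme for full effect; nearly all actives have a fitted effect of over 40% in size; top concentration of the series not given in the record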
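Compounds were screened in titration against cruzain (1.5 nM) with 0.01% Triton X-100 to counter colloidal aggregation. Activity was the AMC fluorescence increase over 60 s after adding 2 uM Z-FR-AMC at pH 5.5.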
SARS PLpro yeast = SARS-CoV PLP inhibition in yeast | hit rate 0.19% among 330,000 | Potency, µM (series often up to 32.9 µM), for the others: top-dose activity, positive = growth rescue | AID 485353 | S. cerevisiae expressing SARS-CoV PLpro, growth rescue; control for the full effect not named in the record; further: 0% is about no effect; nearly all actives have a fitted effect of over 55% in size; growth read by luminescence after 48 h
StopGo reporter = FMDV 2A StopGo reporter, luciferase signal | human cells with a luciferase reporter of 2A StopGo recoding; control for the full effect not named in the record | Potency, µM (titrated, usually from 57.9 µM), inactives show top-dose signal change, negative = less light | hit rate 1.2% among 410,000; active = well fitted falling curve with a large enough effect; inconclusive = small, poorly fitted or top-dose-only effect; inactive = no such curve, though single readings can be large or run the other way; tested in HEK293T cells; further: on the % scale 0 is the no-effect control and ±100 the full control effect; nearly all actives have a fitted effect of over 45% in size; luciferase light after 4 h
An asterisk follows results filed as active; ? = inconclusive; . = no result given; & = joins results of further samples; [ ] = another dose, or the depositor's remark. Unless noted, the call rests on the fitted dose curve; in most records, active means well fitted rising curve with a large enough effect; inconclusive means small, poorly fitted or top-dose-only effect; inactive means no such curve, though single readings can be large or run the other way. Potency means the concentration at half of the fitted maximal effect.

SMILES | NS1 inh | Marburg entry inh | RE007 growth inh | LASV entry inh | Cruzain inh noDet | Cruzain Triton | SARS PLpro yeast | StopGo reporter
CN(Cc1ccccc1)C(=O)c1nc2ccccn2c1CN1CCc2sccc2C1 | -10% | ? | -26% | 22% | . | . | -1% | 23%
O=C(N/N=C/C=C/c1ccccc1[N+](=O)[O-])c1cc(-c2ccccc2)n[nH]1 | 2.2µM* | -12% | -9% | -4% | 25µM* | -18% | ? | 0%
O=C(C1=C[C@@H](c2coc3ccccc3c2=O)C[C@@H](OCc2ccc(CO)cc2)O1)N1CCOCC1 | 1% | . | -2% | . | . | . | 0% | -23%
Cc1ccc(S(=O)(=O)N2CCN(C(=O)C3CCCO3)CC2)cc1C (stereo not drawn) | 4% | ? | 0% | -5% | . | . | 1% | -13%
COc1ccc(-c2ccnc3nc(Sc4ncc(C(F)(F)F)cc4Cl)nn23)cc1 | 4% | 4% | 15% | 1% | ? | 0.6% | 0% | ?
CC(=O)Nc1ccc(S(=O)(=O)N2CCN(c3nc4ccccc4n3CC(C)C)CC2)cc1 | -15% | . | -9% | . | . | . | 3% | -13%
CCn1nnnc1NCc1ccc(OCc2c(F)cccc2Cl)c(OC)c1 | 0% | . | -5% | . | . | . | 1% | -10%
Cc1cc(C(=O)Nc2cc(S(C)(=O)=O)ccc2Cl)c(C)o1 | . | -13% | -13% | ? | . | . | -1% | 3%
CCOc1ncccc1C(=O)OCC(=O)Nc1cccc(C(C)=O)c1 | -6% | ? | 2% | 8% | -3% | 0.9% | -2% | -8%
CCOC(=O)/C=C(\C)N1N=C(c2ccccc2)CC1c1ccccc1 (stereo not drawn) | . | ? | -16% | 20%[46.1 µM] | . | . | -5% | 40%[activator]
CCN(C(=O)CCc1nc(-c2ccc(C)cc2)no1)c1cccc(Cl)c1 | . | -9%[46.1 µM] | . | -7%[46.1 µM] | 23% | -6.0% | . | -14%
Cc1cc(Nc2cccc(Br)c2)c2ccccc2n1 | . | ? | 7% | -23% | . | . | . | ?
CCOC(=O)c1c(S(=O)(=O)Nc2ccc(F)cc2Cl)c(C)n(C)c1C | 11% | . | -3% | . | . | . | 0% | 41%[activator]
CCOC(=O)C1CCCN(C(=O)Cn2ncc3c4ccccc4n(C)c3c2=O)C1 (stereo not drawn) | . | 15%[46.1 µM] | . | 2%[46.1 µM] | ? | -4.2% | . | -8%
COc1cc(/C=C/C(=O)N(C)CC(=O)Nc2ccccc2SC)cc(OC)c1OC | . | 1% | -7% | -14% | . | . | 1% | -13%
Cc1cc(C)nc(N2CCN(S(=O)(=O)c3ccc(F)cc3)CC2)n1 | -9% | . | 1% | . | . | . | 2% | -23%
O=C(Cn1nc(C(F)F)cc1C(F)F)NNC(=S)Nc1ccc(F)cc1 | -2% | 17% | 10% | 7% | -10% | 1.8% | -19% | 16%
CC1(C)Cc2cccc(OCC(=O)NCCOc3ccccc3)c2O1 | . | -3%[46.1 µM] | 8% | 20% | . | . | -1% | -19%
COc1ccc(CCN2CC(C(=O)Nc3ccc4c(c3)OCO4)CC2=O)cc1OC (stereo not drawn) | . | 3%[46.1 µM] | 28% | -17% | . | . | 4% | 12%
COc1ccc(S(=O)(=O)N(C)C)cc1NC(=O)COC(=O)c1nc2nccc(C)n2n1 | -2% | . | 2% | . | . | . | 0% | -11%

The final four compounds of the section before come first, to join the parts:
SMILES | NS1 inh | Marburg entry inh | RE007 growth inh | LASV entry inh | Cruzain inh noDet | Cruzain Triton | SARS PLpro yeast | StopGo reporter
O=C(Cn1nc(C(F)F)cc1C(F)F)NNC(=S)Nc1ccc(F)cc1 | -2% | 17% | 10% | 7% | -10% | 1.8% | -19% | 16%
CC1(C)Cc2cccc(OCC(=O)NCCOc3ccccc3)c2O1 | . | -3%[46.1 µM] | 8% | 20% | . | . | -1% | -19%
COc1ccc(CCN2CC(C(=O)Nc3ccc4c(c3)OCO4)CC2=O)cc1OC (stereo not drawn) | . | 3%[46.1 µM] | 28% | -17% | . | . | 4% | 12%
COc1ccc(S(=O)(=O)N(C)C)cc1NC(=O)COC(=O)c1nc2nccc(C)n2n1 | -2% | . | 2% | . | . | . | 0% | -11%
Cc1cccc(C(C)C)c1NC(=O)Cc1ccc(S(=O)(=O)N2CCOCC2)s1 | . | -2% | 1% | -26%[46.1 µM] | . | . | 5% | -24%
Cc1c(OCC(=O)NCc2ccccn2)ccc2c(-c3ccccc3)cc(=O)oc12 | -9% | . | -4% | . | . | . | -2% | -19%
Cc1cc(N/N=C/c2cccc([N+](=O)[O-])c2)nc(-n2nc(C)cc2C)n1 | -1% | -18%[46.1 µM] | -5% | 3%[46.1 µM] | . | . | -1% | -20%
Cn1ncc2c(N3CCN(c4ccc(F)cc4)CC3)ncnc21 | . | . | . | -20%[46.1 µM] | 1% | 0.6% | . | ?
Cc1cccc(C)c1NC(=O)CNC(=O)CNC(=O)c1ccc2c(c1)OCO2 | . | 6% | -10% | ? | . | . | -3% | 4%
CCN(CC)CCNC(=O)Cn1nc(Cc2ccncc2)c2ccccc2c1=O | 2% | . | 6% | . | . | . | 0% | -12%
COc1cc(C(=O)NCc2cccc(Cl)c2)ccc1OCC(=O)N1CCOCC1 | . | -26% | 9% | 17% | . | . | -4% | -16%
Cc1ccc(NS(=O)(=O)c2ccc3c(c2)CC(=O)N3)c(C)c1 | ? | . | -4% | . | . | . | 4% | -20%
CCOC(=O)c1c(S(=O)(=O)N2CCCC(C(=O)Nc3ccc(C)cn3)C2)c(C)n(C)c1C (stereo not drawn) | 6% | . | -2% | 17%[46.1 µM] | 5% | 1.1% | 1% | 0%&-15%
O=C(Nc1nccs1)C1CC(=O)N(CCc2ccccc2)C1 (stereo not drawn) | . | 23% | -16% | -14% | . | . | -4% | -17%
Cc1oc(-c2ccccc2)nc1C(=O)N1CCN(c2ccc(F)cc2)CC1 | . | -21% | 4% | ? | . | . | -5% | -3%
c1ccc2sc(SCSc3nc4ccccc4s3)nc2c1 | -5%&-6% | . | 7% | . | -9% | 14% | 0% | 54%[activator]
COc1ccc(-c2cc(C(F)(F)F)nc(SCC(N)=O)n2)cc1 | -4% | -2% | 5% | -4% | 2% | -16% | 4% | .
COc1cc(/C=N/NC(=O)c2ccncc2)ccc1OCC(=O)Nc1cccc([N+](=O)[O-])c1 | 12% | 7%[46.1 µM] | 2% | 0%[46.1 µM] | . | . | 2% | 9%
CCOC(=O)N1CCc2c(sc(NCc3cccs3)c2C(=O)Nc2ccc(OC)cc2OC)C1 | . | . | . | ? | 23% | -8.0% | . | ?
O=c1cc(CSc2n[nH]c(-c3ccncc3)n2)nc2sccn12 | . | 11%[46.1 µM] | 3% | 11%[46.1 µM] | . | . | 0% | -5%
Cc1cc(C)cc(NC(=S)N(CCN(C)C)Cc2cccs2)c1 | . | ? | 28% | ? | . | . | -3% | 20%
Cc1ccc2c(CNCCc3ccc(Cl)cc3)c(C(=O)O)n(Cc3ccc(F)cc3)c2c1 | . | . | . | -29%[46.1 µM] | ? | -5.4% | . | -17%
CCSc1ncc(C#N)c(=O)[nH]1 | -4% | ? | 1% | 6% | 2% | -2.6% | ? | -16%
O=C(CN1C(=O)CCSc2ccc(S(=O)(=O)N3CCCC3)cc21)Nc1cccc(Cl)c1 | . | . | . | -2%[46.1 µM] | 4% | -7.2% | . | -14%
Cn1nnnc1NCc1ccccc1F | 21% | . | 10% | . | . | . | 5% | -3%
CC(OC(=O)c1nn(C)c(=O)c2ccccc12)C(=O)NCc1ccc2c(c1)OCO2 (stereo not drawn) | -12% | 12% | -6% | -2% | -9% | 2.0% | 7% | -14%
Cc1ccc(S(=O)(=O)N2CCN(C(=O)COC(=O)CCOc3cc(C)ccc3C)CC2)cc1 | . | 19% | -7% | 12% | . | . | 3% | ?
COc1ccc(/C=N/OCC(=O)N=Nc2c(O)[nH]c3ccc(Br)cc23)cc1OC | 20% | ? | -11% | -9%[46.1 µM] | ? | -4.8% | 4% | -16%
Cc1[nH]c2ccccc2c1-c1ccc(Cl)nn1 | . | -23%[46.1 µM] | -11% | -2% | . | . | 0% | -9%
N#CC1(c2ccccc2)CCC(=O)N1c1ccccc1 (stereo not drawn) | -1% | . | 5% | . | . | . | 0% | -3%
CC1CCCC(C)N1C(=O)Cn1nnc(-c2ccccc2)n1 (stereo not drawn) | -6% | . | 2% | . | . | . | -2% | 23%
CCN1CCN(C(=O)Cn2nc(C)c3sc4ccccc4c3c2=O)CC1 | -2% | 8%[46.1 µM] | -14% | 18%[46.1 µM] | . | . | -1% | -11%
CCN1CCN(c2ncc(C(=O)Nc3ccccc3C(=O)OC)c3ccccc23)CC1 | -33% | 13µM* | -4% | ? | 2% | 1.8% | -3% | -17%
O=C(NCc1ccccc1Cl)c1ccc(CS(=O)Cc2ccc(Cl)cc2)o1 (stereo not drawn) | -29% | . | 0% | . | . | . | 2% | -14%
O=C(c1cccc(F)c1)N1CCCC(C(=O)N2CCCCCC2)C1 (stereo not drawn) | 3% | 3% | 2% | . | . | . | -3% | 0%
N#Cc1cn(CCCOc2ccccc2)c2ccccc12 | -25% | -1% | 2% | 14% | -6% | -7.9% | -22% | -4%

Some of these compounds in order of heavy-atom count, highest first.
SMILES | NS1 inh | Marburg entry inh | RE007 growth inh | LASV entry inh | Cruzain inh noDet | Cruzain Triton | SARS PLpro yeast | StopGo reporter
CCN1CCN(c2ncc(C(=O)Nc3ccccc3C(=O)OC)c3ccccc23)CC1 | -33% | 13µM* | -4% | ? | 2% | 1.8% | -3% | -17%
COc1ccc(/C=N/OCC(=O)N=Nc2c(O)[nH]c3ccc(Br)cc23)cc1OC | 20% | ? | -11% | -9%[46.1 µM] | ? | -4.8% | 4% | -16%
CCN1CCN(C(=O)Cn2nc(C)c3sc4ccccc4c3c2=O)CC1 | -2% | 8%[46.1 µM] | -14% | 18%[46.1 µM] | . | . | -1% | -11%

The order is random; any-hit rate near 4.8%.
